# Source: PubChem (National Center for Advancing Translational Sciences (NCATS))
# RE007 growth inh: qHTS Assay for Inhibitors of the HIV-1 protein Vpr; Potency, µM (series often up to 92.2 µM), for inactives: top-dose activity change, negative = less growth; S. pombe RE007 Vpr strain, BacTiter-Glo ATP luminescence, 24 h; control for the full effect not named in the record; hit rate 0.21% among 360,000; active = well fitted falling curve with a large enough effect; inconclusive = small, poorly fitted or top-dose-only effect; inactive = no such curve, though single readings can be large or run the other way;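 also: nearly all actives have a fitted effect of over 50% in size; the assay follows cell death caused by Vpr and the record does not say whether a fall means rescue or toxicity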
#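 Fission yeast strain RE007, carrying one chromosomally integrated HIV-1 vpr copy, was seeded at OD 0.01 in PMG+AL medium with 23 nL pinned compound. After 24 h at 30 °C and 99% humidity, viability was read by BacTiter-Glo luminescence.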
# StopGo reporter: High Throughput Screening for Foot and Mouth Disease Virus Antivirals. human cells with a luciferase reporter of 2A StopGo recoding; control for the full effect not named in the record. Potency, µM (top dose mostly 57.9 µM), without a hit: at the top dose signal change, negative = less light. hit rate 1.2% among 410,000. AID 1159524, 2015; active = well fitted falling curve with a large enough effect; inconclusive = small, poorly fitted or top-dose-only effect; inactive = no such curve, though single readings can be large or run the other way; tested in HEK293T cells; also: nearly all actives have a fitted effect of over 45% in size; luciferase light after 4 h
# Active calls of the source: *; ? = inconclusive; [ ] = another dose, or the depositor's remark. % is scaled to controls: 0 for no effect and ±100 for the full control effect; potency is read from the fitted curve at half-maximal effect. Only part of the results is shown, so the mix of outcomes need not match the whole.
structure | RE007 growth inh | StopGo reporter
CCC1(CC)C(=O)C2=C3C1[C@H](C(=O)OC)C=C(C(=O)OC)C[C@H]3n1c(=O)n(-c3ccccc3)c(=O)n1[C@H]2C (stereo not given in full) | -4.1% | -16.5%
CC1(C(=O)NS(=O)(=O)c2ccc(C#N)cc2)CCN1C(=O)Cc1cc(F)ccc1F (stereo not given) | 4.3%[18.4 µM] | -11.0%
CNc1nc(Nc2ccc(C)cc2C)c2sccc2n1 | -28.6% | ?
Nc1sccc1C(=O)N1CCN(c2ccccc2)CC1 | -14.1% | -18.3%
c1ccc(Cn2ccnc2C2OCCO2)cc1 | -5.5% | -2.8%
CC(=O)Nc1cnc(-c2ccc(O)cc2C)cn1 | 21.1% | 25.0%
Cc1ccc(F)c(S(=O)(=O)NC(=O)C2(C)CCN2C(=O)Cc2cccc3ccccc23)c1 (stereo not given) | 3.2% | -8.7%
CC1=C(C(=O)N(C(C)C)C(C)C)CC(CC(=O)NCCc2ccccn2)C(=O)N1CCC1=CCCCC1 (stereo not given) | -16.6% | -29.5%
Cc1ccc([C@H]2C[C@H](n3cc(-c4ccc(F)cc4)nn3)[C@@H](O)CN2C(=O)c2cccs2)cc1 | 2.9% | ?
CSc1ccc(C(O)c2ncc(-c3ccccc3Cl)[nH]2)cc1 (stereo not given) | -12.4% | 43.1%[activator]
CCOc1cc(C(=O)NC2CCCCCCC2)cc(OCC)c1OCC | 3.1% | -12.8%
COc1ccc(C2=NOC(C)(c3nnc(-c4ccccc4)o3)C2)cc1 (stereo not given) | -25.7% | -23.7%
C[C@@H]1COc2cccc(N3CCC[C@@H]3CO)c2S(=O)(=O)N1 | 5.8% | -0.6%
O=C(c1[nH]c(C(F)(F)F)nc1-c1ccccc1)N1CCN(CCN2CCOCC2)CC1 | 8.4% | -16.9%
Cn1c(=NC(=O)CS(=O)(=O)c2ccccc2)sc2cc(F)ccc21 | -2.7% | 32.1%[activator]
CC(C)(C)NC(=O)C1C(c2ccc(C(F)(F)F)cc2)=Nc2ccccc2N1C(=O)c1cccc(C(F)(F)F)c1 (stereo not given) | 0.0% | -7.9%
COc1ccccc1-c1ccc2c(c1)C(C)(Cc1ccc(OC(F)(F)F)cc1)C(=O)N2 (stereo not given) | 7.2% | -23.6%
CC(C)CC(N)c1csc(NC(=O)Nc2ccccc2C(C)(C)C)n1 (stereo not given) | -11.4%[18.4 µM] | -20.6%
Brc1ccc2nc(-c3ccccc3)c(Cc3ccsc3)n2c1 | -1.5% | 24.0%
COCOc1ccc(C=O)c(O)c1 | 16.9% | -9.3%
O=C(CCc1c[nH]c2ccccc12)N1CCN(S(=O)(=O)c2ccc([N+](=O)[O-])cc2)CC1 | -16.4% | -29.9%
CC(C)(C)n1nnnc1C(C1CC1)N1CCC(n2c(=O)[nH]c3ccccc32)CC1 (stereo not given) | 9.0% | -25.9%
CCOC1=C2CN(S(=O)(=O)c3ccc(Cl)cc3)[C@H](c3ccccc3)C[C@@H]2N(S(=O)(=O)c2ccc(C)cc2)[C@H](c2ccccc2)C1 | 1.5% | ?
COc1ccc(-c2cc3nc(NCc4ccc(NC(C)=O)cc4)n(C)c(=O)c3s2)cc1OC | 4.2%[18.4 µM] | -9.9%
Cc1c(C(=O)NCc2ccc(C(F)(F)F)cc2)sc(=O)n1Cc1ccc(S(=O)(=O)N(C)C)cc1 | 6.9%[18.4 µM] | ?
CCOC(=O)C1=CCN(S(=O)(=O)c2ccc(C)cc2)C1c1cccc(F)c1 (stereo not given) | 3.2% | ?
CCCCn1nnnc1C(c1ccccc1)N1CCN(c2ncccn2)CC1 (stereo not given) | -4.0% | -9.4%
Cc1csc(=O)n1CCC(=O)OCC(=O)Nc1ccc(N2CCOCC2)cc1 | -3.5% | -15.1%
CN1OC[C@@H]2CN(C(=S)NCCc3ccccc3)[C@H](c3ccc(-n4ccnc4)cc3)C[C@@H]21 | -18.9% | -5.6%
COC(=O)[C@]12CCCCC=C1N(Cc1ccc3c(c1)OCO3)C(=O)[C@H](CC(=O)NCc1cccc3ccccc13)C2 | 0.0% | -11.0%
Cc1ccc(C(=O)NCCN2CCC(n3c(=O)[nH]c4ccccc43)CC2)cc1 | -7.2% | 0.0%
COc1cccc(Cn2c3ccc(NC(=O)CCc4ccc(F)cc4)cc3c(=O)n2C)c1 | 3.8% | -26.2%
COc1cccc(OCc2cc(C(=O)N(C)C3CCCCC3)no2)c1 | 1.1% | 51.8%[activator]
CC(C)c1ccc(Nc2ncc3c(n2)CCN(C(=O)NC2CCCCC2)C3)cc1 | -8.8% | -12.6%
CNc1ncnc2c1ncn2[C@H]1CN(Cc2ccccc2)C[C@@H](CO)O1 | 2.4% | -24.3%
Nc1[nH]c(C(=O)c2ccccc2)c(-c2ccccc2Cl)c1C(=O)c1ccccc1 | 8.4% | -1.4%
COc1ccc2c(c1)[C@H]1[C@H](CO2)[C@H](c2ccccc2)[C@@]2(C)C(=O)N[C@H](C)C(=O)N12 | -8.7% | -16.3%
CN1C[C@@H]2[C@@H]3C(=O)N(Cc4ccccc4)C(=O)[C@@H]3[C@](Cc3ccccc3)(C1=O)N2C(=O)c1ccc(C(C)(C)C)cc1 | 0.0% | ?
COCc1cccc(-c2csc(C(O)c3ccc(OC)cc3)n2)c1 (stereo not given) | 18.1% | -15.5%
CCOc1cc(/C=C2\SC(=S)N(NS(=O)(=O)c3ccc(C)cc3)C2=O)ccc1O | 1.2% | 4.3%

# (cont.)
molecule	RE007 growth inh	StopGo reporter
CCNC(=O)C1(C)CCCN(Cc2ccc3ccccc3c2Br)C1 (stereo not given)	-24.5%	28.1%
Cc1nc(-c2ccccc2)sc1C(=O)NS(=O)(=O)c1ccc(CN2CCN(c3ccccc3)CC2)cc1	10.0%	-9.2%
COc1cccc(NC(=O)CN(C)C(=O)c2cc(CN3C(=O)c4ccccc4C3=O)ccc2OC)c1	-2.1%	?
CCCS(=O)(=O)NC(=O)C1(C)CCN(C(=O)c2ccc(OC)c(F)c2)C1 (stereo not given)	5.7%	-8.1%
COC(=O)c1cn(CC(C)n2c(=O)c3ccccc3n2Cc2cc(C(C)C)no2)nn1 (stereo not given)	?	-16.4%
CC1(C(=O)NC2CCCC2)CCC(=O)N1CCOc1ccccc1 (stereo not given)	0.1%	-3.0%
O=C(NCc1cccnc1)C(=O)NCC1OCCCN1S(=O)(=O)c1cc(F)ccc1F (stereo not given)	9.0%	-23.9%
COCCCN1C(=O)C(CC(=O)NCC2CCCCC2)CC(C(=O)N(C)C)=C1C (stereo not given)	16.0%	0.0%
O=C(COC(=O)c1cccc(S(=O)(=O)N2CCCC2)c1)Nc1ccc(Cl)cc1	15.5%	-14.9%
Cc1nn(-c2ccccc2)c(C)c1C(=O)OCC(=O)Nc1ccc(C(N)=O)cc1	-3.2%	-1.3%
CCCc1ccc(C(O)c2ncc(-c3ccccc3F)[nH]2)cc1 (stereo not given)	-19.5%[18.4 µM]	111.0%[activator]
CCC(CC)C(=O)N(C)c1c(C)nc2c(OCc3ccc(C#N)cc3)cccn12	-21.3%	-21.2%
Cc1nnc(SCCCOc2ccccc2)nc1C	-3.2%	32.8%[activator]
O=C(Nc1cccc2ccccc12)c1csc([C@@H]2C[C@H](O)[C@@H](CO)O2)n1	-3.1%[18.4 µM]	-12.8%
COc1ccc(S(=O)(=O)N2CCCC(c3cc(C(=O)NCc4cccnc4)no3)C2)cc1 (stereo not given)	?	-21.5%
C=CCn1c(SCC(=O)NCC(c2ccccc2)N(C)C)nc2sc3c(c2c1=O)CCC3 (stereo not given)	6.3%	-19.1%
CCOC(=O)[C@]12CCCC=C1N(CCC1=CCCCC1)C(=O)[C@H](CC(=O)NCC1CCCCC1)C2	5.1%	17.7%
CCOC(=O)C1=C(C)N(CCCC(=O)O)C(=O)NC1c1ccc2ccccc2c1 (stereo not given)	1.2%	-9.5%
CCc1ccccc1Oc1nc2cc(-c3cccc(OC)c3)sc2c(=O)n1C	0.3%[18.4 µM]	-8.9%
CC(C)C[C@@H](CNCC(=O)[C@H](CC(C)C)NC(=O)c1[nH]cnc1C(=O)N[C@@H](C)CN)NC(=O)c1nc[nH]c1C(=O)N[C@@H](CC(C)C)C(=O)O	3.1%	-17.4%
Cc1ccc(C(=O)COC(=O)CN2C(=O)C3CC=CCC3C2=O)cc1C (stereo not given)	-6.1%	-10.4%
COc1ccc(S(=O)(=O)N2CCN(C(=O)c3ccc(COc4ccccc4)o3)CC2)cc1	-16.7%	?
CCCCc1c(O)nc(SCC(=O)Nc2ccc(OC)cc2)n(-c2ccc(C)c(C)c2)c1=O	-6.6%	-4.2%
CCCCNC(=O)c1nc(-c2cc3ccccc3[nH]2)oc1-c1cccc(C(F)(F)F)c1	0.0%	-15.4%
COCCN(C(=O)Cc1csc(-c2cccc(Cl)c2)n1)c1c(N)n(Cc2ccccc2)c(=O)[nH]c1=O	5.7%	-27.8%
CC[C@H](C)[C@@H]1NC(=O)[C@@H](CC(C)C)NC(=O)[C@H](C(C)C)NC(=O)[C@H]2CSSC[C@H](NC1=O)C(=O)N2	8.9%	6.31µM*
O=C(CCl)NC1(C(=O)O)CCCC1	4.1%	-4.5%
C[C@H](CO)N1C[C@H](C)[C@H](CN(C)C(=O)Cc2cccnc2)Oc2ncc(Br)cc2C1=O	1.7%	0.9%
CS(=O)(=O)N1c2ccccc2[C@@]2(Br)C[C@H]3C(=O)N[C@@H](Cc4ccccc4)C(=O)N3[C@@H]12	-6.1%	-21.5%
COCCOC(=O)C1=C(C)NC(=S)NC1c1ccc(OCC(=O)N2CC(C)OC(C)C2)c(OC)c1 (stereo not given)	4.2%	-2.0%
CC(C)C(NC(=O)OCc1ccccc1)C(=O)NC(Cc1c[nH]c2ccccc12)C(=O)O (stereo not given)	3.6%[18.4 µM]	-18.8%
Cc1cc(F)cc(-c2cc(C(=O)NCc3ccccn3)[nH]n2)c1	-5.7%	1.6%
CCc1nc(CN2CCCC(C(=O)Nc3ccc(-c4cccc(OC)c4)cc3)C2)c(C)[nH]1 (stereo not given)	3.9%	-2.5%
COc1cccc(-c2ccc3c(c2)C2CC3CCN2C(=O)c2ccc(-c3ccccc3)cc2)c1 (stereo not given)	0.2%	2.9%
CCCCN(C)c1c(C)nc2ccc(C(=O)NCCc3c[nH]c4ccccc34)cn12	-23.8%[18.4 µM]	-24.6%
O=C(Nc1ccc(Oc2ccccc2)cc1)c1ccc2nc([C@@H]3O[C@H](CO)[C@H](O)[C@H](O)[C@H]3O)[nH]c2c1	7.6%	-7.3%
COCOc1cc(O)c2c(=O)c(OCOC)c(-c3ccc(OCOC)c(OCOC)c3)oc2c1	5.3%	-24.4%
CN1C(=O)CC2(C)C1=CCc1scnc12 (stereo not given)	8.0%[18.4 µM]	-14.2%
O=C(Nc1ccc(OCCO)cc1)c1csc([C@@H]2O[C@H](CO)[C@H](O)[C@H](O)[C@H]2O)n1	-12.2%[18.4 µM]	-12.3%
O=C(NCc1ccc(F)cc1)c1cc(C2CCCCN2C(=O)c2ccccn2)on1 (stereo not given)	10.4%	0.0%

# Record cards, as listed above.
# `CS(=O)(=O)N1c2ccccc2[C@@]2(Br)C[C@H]3C(=O)N[C@@H](Cc4ccccc4)C(=O)N3[C@@H]12` across the screens: RE007 growth inh = -6.1%; StopGo reporter = -21.5%
# `Cc1cc(F)cc(-c2cc(C(=O)NCc3ccccn3)[nH]n2)c1` across the screens: RE007 growth inh = -5.7%; StopGo reporter = 1.6%

# Sorted by length of the SMILES (ascending): part of the list above.
molecule	RE007 growth inh	StopGo reporter
COCCCN1C(=O)C(CC(=O)NCC2CCCCC2)CC(C(=O)N(C)C)=C1C (stereo not given)	16.0%	0.0%
COc1ccc(-c2cc3nc(NCc4ccc(NC(C)=O)cc4)n(C)c(=O)c3s2)cc1OC	4.2%[18.4 µM]	-9.9%
CC(C)(C)NC(=O)C1C(c2ccc(C(F)(F)F)cc2)=Nc2ccccc2N1C(=O)c1cccc(C(F)(F)F)c1 (stereo not given)	0.0%	-7.9%

# Next section:
molecule	RE007 growth inh	StopGo reporter
CCOC(=O)[C@]12Cc3cc(C)ccc3[C@H]1N(CCC(=O)OC)C(=O)c1cc(OC)ccc12	-13.0%	31.6µM*
CC1=C(C(=O)N2CCOCC2)CC(CC(=O)NCCc2ccccn2)C(=O)N1Cc1ccc(C(C)(C)C)cc1 (stereo not given)	-0.5%	0.0%
CCOC(=O)N(C)C[C@H]1OCc2cn(nn2)CCCC(=O)N([C@H](C)CO)C[C@@H]1C	-2.3%	-21.5%
Clc1ccc(-c2nc3ccc(Cl)cn3c2Cc2ccsc2)cc1	-26.1%	24.6%
CCCCCCCCN1C(=O)[C@H](CC(=O)N2CCCC2)C[C@@]2(C(=O)OCC)CCCC=C12	59.2%	-10.2%
CC(=O)c1cccc(NC(=O)C2Cc3c(-c4cccc(F)c4)ccnc3O2)c1 (stereo not given)	-21.7%	-5.5%
CC(C)C(=O)NCCc1nc(-c2ccccc2)no1	5.6%	39.1%[activator]
O=C(NCC(F)(F)F)C1C(=O)Nc2ccccc2C(=O)N1Cc1ccccc1 (stereo not given)	-3.5%	-9.9%
CC(C)C[C@H]1COCCS(=O)(=O)N1Cc1cccc(F)c1	-3.9%	-20.7%
CN(C)c1ccc2c(=O)cc[nH]c2c1	-12.2%[18.4 µM]	-11.3%
